BJeLR viab HTS: BJeLR cell viability loss, primary screen, luminescence, CellTiterGlo ATP; BJeLR fibroblasts viability, 48 h; HRASV12, hTERT and SV40 LT/ST transformed; viability loss activity score, % (no concentration beside the values); 30,000 compounds, 0.64% hits; AID 2275, 2010; in the data active means viability loss activity score above about 50%; inconclusive means no clear call, values can overlap the other calls; inactive means below about 35%; about a fifth of its hits are not listed in these tables;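 further: higher score means fewer live cells and less ATP luminescence; stock transfer was 50 or 100 nL into about 30 µL; 0% = vehicle wells and 100% = a reference killing control; one replicate is shown; the record names a cut of 85%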
A1 inh: inducers of caspase activity in MEF A1-2A-BIM cells, primary screen, A1 inhibitor project, cell-based, CaspaseGlo luminescence. 21,000 compounds, 0.51% hits. caspase activation, % (no concentration beside the values). caspase-Glo luminescence, 3 h; percent of clofoctol signal, DMSO as zero;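 active means most replicate scores above 10, or exactly half above 10 with mean activity above 10; inconclusive means mean activity below 10 while half the replicates exceed 10; inactive means most replicate scores below 10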;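 further: effector caspase 3 and 7 activity cleaving a DEVD luciferin substrate; 50 nL library stock added to about 30 µL; numbers are from one replicate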
Numbers without * were called inactive; ? = inconclusive; nt = no result given. An excerpt. The share of hits here may be higher or lower than overall.

A first look:
SMILES | BJeLR viab HTS | A1 inh
Cc1ccc(S(=O)(=O)Nc2ccc3c(c2)C(=O)N([C@@H](C)CO)C[C@@H](C)[C@@H](CN(C)S(=O)(=O)c2c(C)noc2C)O3)cc1 | -1.3 | 0.2
COc1ccc(/C=C2\SC(=S)N(CC3CCCO3)C2=O)cc1 (stereo not drawn) | -4.6 | nt

Results (from the top)
SMILES | BJeLR viab HTS | A1 inh
Cc1ccc(S(=O)(=O)Nc2ccc3c(c2)C(=O)N([C@@H](C)CO)C[C@@H](C)[C@@H](CN(C)S(=O)(=O)c2c(C)noc2C)O3)cc1 | -1.3 | 0.2
COc1ccc(/C=C2\SC(=S)N(CC3CCCO3)C2=O)cc1 (stereo not drawn) | -4.6 | nt
Cc1noc(C)c1S(=O)(=O)Nc1cccc2c1O[C@H](CN(C)CC1CC1)[C@H](C)CN([C@H](C)CO)C2=O | 4.1 | nt
Cc1noc(C)c1NC(=O)Nc1ccc2c(c1)C(=O)N([C@@H](C)CO)C[C@@H](C)[C@@H](CN(C)CC1CCCCC1)O2 | -1.8 | -0.1
COc1ccc(NC(=O)C(C(=O)Nc2ccc(OC)cc2)C23CC4CC(CC(C4)C2)C3)cc1 | 0.4 | -0.4
CCOC(=O)c1c(CN(CC)CC)oc2ccc(OC)cc12 | 0.0 | 0.2
CC(C)(C)c1ccc(/C=C/C(=O)Nc2cccnc2)cc1 | -3.6 | nt
C[C@@H]1CN([C@H](C)CO)C(=O)c2cc(NC(=O)C3CCCCC3)ccc2O[C@H]1CN(C)Cc1ccncc1 | -1.0 | 0.2
CC(C)NC(=O)N(C)C[C@H]1Oc2ccc(NC(=O)Cc3cn(C)c4ccccc34)cc2C(=O)N([C@H](C)CO)C[C@H]1C | -4.6 | -0.3
COc1ccc(C)cc1N(C)C(=O)c1nn(C)c2c1COc1ccccc1-2 | -2.4 | 0.7
COC(=O)CN1C(=O)S/C(=C/c2ccc(-c3ccc(C(=O)O)cc3)o2)C1=O | -2.9 | -1.2
CCn1cc(C(=O)N(C)C2CCCCC2)c2cc(OC)c(OC)cc2c1=O | 0.0 | nt
C[C@@H]1CN([C@@H](C)CO)C(=O)c2cccc(NS(=O)(=O)c3ccccc3)c2O[C@@H]1CN(C)C(=O)NC1CCCCC1 | 0.3 | nt
C[C@H]1CN([C@@H](C)CO)C(=O)c2cccc(NS(=O)(=O)c3ccccc3)c2O[C@@H]1CN(C)C | 6.7 | nt
CC(C)CN1CN(Cc2ccco2)CNC1=S | -3.4 | 0.1
C[C@@H]1CN([C@@H](C)CO)C(=O)c2cccc(NC(=O)C3CC3)c2O[C@@H]1CN(C)Cc1ccc(-c2ccccc2)cc1 | 0.0 | nt
C[C@@H]1CN([C@H](C)CO)C(=O)c2cc(N(C)C)ccc2O[C@H]1CN(C)S(=O)(=O)c1ccc(F)cc1 | 2.0 | 0.3
COc1ccc(NC(=O)Nc2cccc3c2O[C@@H](CN(C)Cc2ccccc2)[C@@H](C)CN([C@@H](C)CO)C3=O)cc1 | 0.1 | nt
O=C(c1ccccc1NS(=O)(=O)c1ccccc1)N1CCCC1 | 6.3 | 0.4
CSc1cccc(NC(=O)CCS(=O)(=O)c2ccc3c(c2)CCN3C(C)=O)c1 | -0.4 | nt
COc1ccc(NC(=O)CN2C(=O)c3ccccc3C2=O)cc1 | -6.0 | 0.9
CCOc1cccc2c1OC1(C)C(C(=O)Nc3ccc(OC)cc3)C2NC(=S)N1CCOC (stereo not drawn) | 1.4 | -0.5
Nc1nc(CSc2n[nH]c(-c3ccccc3)n2)nc(Nc2ccccc2)n1 | 2.1 | -1.2
Cc1noc(C)c1NC(=O)N(C)C[C@@H]1Oc2c(NC(=O)Nc3ccc(F)cc3)cccc2C(=O)N([C@@H](C)CO)C[C@@H]1C | -1.6 | nt
C[C@@H]1CN([C@@H](C)CO)C(=O)c2cccc(NC(=O)c3ccncc3)c2O[C@@H]1CN(C)Cc1ccc(C(F)(F)F)cc1 | -5.2 | nt
Cc1cc(C(=O)Nc2cccc3c2O[C@H](CN(C)C(=O)Nc2cccc4ccccc24)[C@@H](C)CN([C@H](C)CO)C3=O)n(C)n1 | 1.4 | nt
COc1ccc2c(=S)c(-c3cc4ccccc4o3)c(C)oc2c1 | 2.7 | -0.9
O=C(Nc1ccc(Cl)cc1)/C(=C\c1cccs1)c1ccsc1 | 4.0 | -0.4
Cc1ccc(S(=O)(=O)N(C)C[C@@H]2Oc3ccc(NS(=O)(=O)c4ccc(F)cc4)cc3C(=O)N([C@@H](C)CO)C[C@@H]2C)cc1 | -0.8 | 0.5
Cc1noc(C)c1NC(=O)Nc1cccc2c1O[C@@H](CN(C)C(=O)Nc1ccc(F)cc1)[C@H](C)CN([C@H](C)CO)C2=O | 6.8 | nt
CCOc1nc2cccc(C(=O)OC(C)OC(=O)OC3CCCCC3)c2n1Cc1ccc(-c2ccccc2-c2nn[nH]n2)cc1 (stereo not drawn) | -9.6 | 0.2
O=C1c2oc3ccccc3c(=O)c2C(c2ccccc2)N1c1nccs1 (stereo not drawn) | -1.3 | nt
O=C(NCC1OCCc2ccccc21)c1ccc(Br)cc1 (stereo not drawn) | 0.2 | -0.3
CC(C)C(=O)Nc1cccc(Cl)c1 | 3.7 | 0.6
O=C1CCCC2=C1C(c1cccnc1)Nc1ccc3ccccc3c12 (stereo not drawn) | 5.8 | -1.0
C=CCN(CC=C)CC(O)Cn1c2c(c3cc(C)ccc31)CCCC2 (stereo not drawn) | 1.5 | nt
COc1ccc(C(=O)c2ccccc2)cc1CN1CCOCC1 | 3.0 | 1.0
C[C@@H]1CN([C@H](C)CO)C(=O)c2cccc(NS(=O)(=O)c3ccccc3)c2O[C@H]1CN(C)Cc1ccc(C(F)(F)F)cc1 | 16 | nt
CC(C)CCNC(=O)C1CCC(=O)N1CCc1ccccc1 (stereo not drawn) | -2.1 | 0.2
CC1(C)CC(=O)C(C=Nc2cccc(NC3=C(C#N)C(=O)CC(C)(C)C3)c2)=C(O)C1 | 1.8 | nt
Cc1ccc(NC2=C/C(=N/S(=O)(=O)c3ccc(F)cc3)c3ccccc3C2=O)cc1C | 14 | -3.5
C[C@H](CCC(=O)O)[C@H]1CC[C@H]2[C@@H]3C(=O)C[C@@H]4CC(=O)CC[C@]4(C)[C@H]3CC(=O)[C@]12C | 8.3 | 0.1
CCCCN(C)S(=O)(=O)c1ccc(C(=O)Nc2nc3ccc4ccccc4c3s2)cc1 | 4.7 | 0.2
COC(=O)c1ccc2[nH]c(C)cc(=O)c2c1 | -2.7 | nt
O=c1c2cc(NC(=S)NC3CCCCCC3)ccc2nc2n1CCCCC2 | 3.2 | nt
C[C@H]1CN([C@@H](C)CO)C(=O)c2cccc(NC(=O)C3CC3)c2O[C@H]1CN(C)C(=O)NC1CCCCC1 | 5.6 | nt
CCC(Sc1nncn2c1cc1occc12)C(=O)Nc1ccccc1OC (stereo not drawn) | -2.7 | 0.6
CN(C1CCCC1)C1CCN(C(=O)CNC(=O)/C=C/c2ccccc2)CC1 | -1.4 | nt
CNC[C@H]1Oc2ccc(NC(=O)NC(C)C)cc2C(=O)N([C@@H](C)CO)C[C@@H]1C | -4.4 | -0.4
Cc1ccc(S(=O)(=O)N2CCN(C(=O)OC(C)C)CC2)cc1 | 5.8 | 0.6
CC(C)NC(=O)N(C)C[C@H]1Oc2c(NS(=O)(=O)c3ccccc3)cccc2C(=O)N([C@@H](C)CO)C[C@H]1C | -5.5 | nt
C[C@H](CO)N1C[C@H](C)[C@@H](CN(C)S(=O)(=O)c2ccc(Cl)cc2)Oc2ccc(NC(=O)CCN3CCOCC3)cc2C1=O | 1.1 | -0.1
CCOC(=O)CN1C(=O)C2(C(C#N)=C(N)Oc3n[nH]c(C)c32)c2ccccc21 (stereo not drawn) | 4.0 | -0.3
C[C@@H]1CN([C@H](C)CO)C(=O)c2cccc(NC(=O)C3CCCCC3)c2O[C@@H]1CN(C)Cc1ccncc1 | -3.2 | nt
COc1ccc(-c2nn(-c3ccccc3)cc2C(=O)OCC(C)C)cc1 | -0.6 | -0.3
C[C@H](CO)N1C[C@H](C)[C@H](CN(C)C)Oc2ccc(NS(=O)(=O)c3ccc(Cl)cc3)cc2C1=O | 5.7 | 0.0
C[C@H](CO)N1C[C@H](C)[C@H](CN(C)Cc2ccc(C(F)(F)F)cc2)Oc2ccc(NC(=O)Cn3cnnn3)cc2C1=O | 2.1 | 0.4
Cc1ccccc1C(=O)Nc1ccc(NC(=O)c2ccc(C(C)(C)C)cc2)cc1 | -4.4 | -0.1
C[C@@H]1CN([C@@H](C)CO)C(=O)c2cc(NS(=O)(=O)c3ccc(F)cc3)ccc2O[C@@H]1CN(C)S(C)(=O)=O | 2.6 | -0.5
N#Cc1cnc(SCc2cc(=O)n3ccccc3n2)nc1N | 5.8 | 0.0

Record cards (already shown). Values in the order: BJeLR viab HTS | A1 inh
CCCCN(C)S(=O)(=O)c1ccc(C(=O)Nc2nc3ccc4ccccc4c3s2)cc1 in the list: 4.7 | 0.2
O=C1CCCC2=C1C(c1cccnc1)Nc1ccc3ccccc3c12 (stereo not drawn) in the list: 5.8 | -1.0

Carrying on:
SMILES | BJeLR viab HTS | A1 inh
O=C(NCCC(c1ccccc1)c1ccccc1)c1cccs1 | -3.2 | 0.1
O=C(NCC(=O)N1CCOCC1)c1ccccc1 | 2.8 | -0.4
Cc1ccc(C(=O)C2=C(N)OC3=C(C(=O)CC(C)(C)C3)C2c2ccccc2)cc1 (stereo not drawn) | -1.7 | nt
CN(C(=O)c1ccccc1)C1CCCCC1 | -0.2 | -0.9
CC(C)NC(=O)Nc1ccc2c(c1)C(=O)N([C@@H](C)CO)C[C@H](C)[C@@H](CN(C)S(=O)(=O)c1ccc(Cl)cc1)O2 | 2.3 | 0.7
CC(C)n1c(SCC(=O)C(C)(C)C)nc2cc(C(F)(F)F)ccc21 | -0.3 | 0.0
C[C@H](CO)N1C[C@H](C)[C@@H](CN(C)Cc2ccc(Cl)c(Cl)c2)Oc2c(NS(=O)(=O)c3cccs3)cccc2C1=O | 0.1 | nt
C[C@H](CO)N1C[C@H](C)[C@@H](CN(C)Cc2ccncc2)Oc2ccc(NS(=O)(=O)c3ccc(F)cc3)cc2C1=O | -3.0 | -0.2
Cc1ccc(S(=O)(=O)Nc2ccc3c(c2)C(=O)N([C@H](C)CO)C[C@@H](C)[C@H](CN(C)C)O3)cc1 | -2.7 | -0.1
CC(OC(=O)c1cccc(O)c1)C(=O)O (stereo not drawn) | -1.5 | -0.7
C[C@@H]1CN([C@H](C)CO)C(=O)c2cccc(NS(=O)(=O)c3cccs3)c2O[C@@H]1CN(C)S(=O)(=O)c1ccc(Cl)cc1 | -3.1 | nt
Cc1noc(C)c1NC(=O)N(C)C[C@@H]1Oc2c(NC(=O)NC3CCCCC3)cccc2C(=O)N([C@@H](C)CO)C[C@@H]1C | 3.1 | nt
C[C@H](CCC(=O)NCC(=O)O)[C@H]1CC[C@H]2[C@@H]3[C@H](O)C[C@@H]4C[C@H](O)CC[C@]4(C)[C@H]3C[C@H](O)[C@]12C | -0.9 | 0.6
COc1cc(-c2nc(Nc3ccc(C)c(F)c3)c3ccccc3n2)cc(OC)c1OC | 23 | 0.7
C(=NCc1ccc2c(c1)OCO2)c1cccnc1 | 0.0 | 0.1
CC(C)NC(=O)Nc1cccc2c1O[C@H](CN(C)S(C)(=O)=O)[C@H](C)CN([C@H](C)CO)C2=O | 2.6 | nt
C[C@@H]1CN([C@@H](C)CO)C(=O)c2cccc(NC(=O)Nc3ccccc3)c2O[C@H]1CN(C)Cc1ccc(C(F)(F)F)cc1 | 7.6 | nt
COC(=O)c1c(=O)n(O)c2cc(Cl)c(Cl)cc2[n+]1[O-] | -2.5 | nt
Nc1ccc2nc(SCc3ccccc3Cl)sc2c1 | 1.9 | 0.6
CCn1c(C(=O)O)c(CC(=O)NC2CCCCCC2)c2ccccc21 | 1.5 | 0.1
CCOC(=O)c1nnn2c1nc(SCC(N)=O)c1ccccc12 | 8.6 | -1.0
C[C@H]1CN([C@@H](C)CO)C(=O)c2cc(NC(=O)CCN3CCOCC3)ccc2O[C@@H]1CN(C)S(=O)(=O)c1cccs1 | 0.3 | 0.7
CC(=O)Nc1ncc2c(n1)CC(c1ccccc1)CC2=O (stereo not drawn) | 0.9 | 0.6
CCc1cc(=O)oc2c(C)c(OC)ccc12 | -2.6 | -0.4
Cc1sc2c(c1C)CN(C(C)(C)C)CN2C(=O)c1ccccc1 | 8.6 | -1.8
C[C@@H]1CN([C@@H](C)CO)C(=O)c2cc(NC(=O)C3CC3)ccc2O[C@@H]1CN(C)CC1CC1 | -1.9 | -0.7
COc1ccc(-n2cc(C(=O)NCCN3CCc4ccccc4C3)c3ccccc3c2=O)cc1 | 2.3 | 1.7
COc1ccc(S(=O)(=O)N(C)C[C@@H]2Oc3c(NC(=O)Nc4ccccc4)cccc3C(=O)N([C@H](C)CO)C[C@H]2C)cc1 | 2.3 | nt
FC(F)(F)c1ccc(Oc2ccc(Oc3ccc(C(F)(F)F)cn3)cc2)nc1 | 0.3 | -0.5
OC(Cn1cncn1)(Cn1cncn1)c1ccc(F)cc1F | -0.7 | 0.5
Cc1ccc2oc(=O)c3cnn(CC(=O)N(C)Cc4ccccc4)c3c2c1 | -0.5 | nt
COc1ccc(CCCOC(Cn2ccnc2)c2ccc(OC)cc2)cc1 (stereo not drawn) | ? | 0.9
CCOC(=O)c1cnc2c(S(=O)(=O)C(C)C)csc2c1Sc1ccc(Cl)cc1 | 0.9 | -0.8

Screening data (PubChem)
